YopH PTP inh: blocks Yersinia enterocolitica YopH tyrosine phosphatase | fluorescence Ex485/Em525 | AID 898 | 140,000 tested, 0.16% active | inhibition, %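 (about 10 µM by stock and volumes)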;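 active = inhibition of 50% or more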;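 note: controls were vehicle for no effect and minimum signal wells for full effect; inactives centre near -20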
RecA intein inh: Mtb RecA intein splicing inhibition. cell-free RecA intein splicing, fluorescence. 290,000 tested, 0.75% active. inhibition, %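 (about 9 µM by stock and volumes)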. P9WHJ3; in the data active = inhibition above about 30%; inconclusive = no clear call, values can overlap the other calls;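 note: 0% = vehicle wells and 100% = reference inhibitor control wells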
Target sequence (P9WHJ3 whole entry, looked up): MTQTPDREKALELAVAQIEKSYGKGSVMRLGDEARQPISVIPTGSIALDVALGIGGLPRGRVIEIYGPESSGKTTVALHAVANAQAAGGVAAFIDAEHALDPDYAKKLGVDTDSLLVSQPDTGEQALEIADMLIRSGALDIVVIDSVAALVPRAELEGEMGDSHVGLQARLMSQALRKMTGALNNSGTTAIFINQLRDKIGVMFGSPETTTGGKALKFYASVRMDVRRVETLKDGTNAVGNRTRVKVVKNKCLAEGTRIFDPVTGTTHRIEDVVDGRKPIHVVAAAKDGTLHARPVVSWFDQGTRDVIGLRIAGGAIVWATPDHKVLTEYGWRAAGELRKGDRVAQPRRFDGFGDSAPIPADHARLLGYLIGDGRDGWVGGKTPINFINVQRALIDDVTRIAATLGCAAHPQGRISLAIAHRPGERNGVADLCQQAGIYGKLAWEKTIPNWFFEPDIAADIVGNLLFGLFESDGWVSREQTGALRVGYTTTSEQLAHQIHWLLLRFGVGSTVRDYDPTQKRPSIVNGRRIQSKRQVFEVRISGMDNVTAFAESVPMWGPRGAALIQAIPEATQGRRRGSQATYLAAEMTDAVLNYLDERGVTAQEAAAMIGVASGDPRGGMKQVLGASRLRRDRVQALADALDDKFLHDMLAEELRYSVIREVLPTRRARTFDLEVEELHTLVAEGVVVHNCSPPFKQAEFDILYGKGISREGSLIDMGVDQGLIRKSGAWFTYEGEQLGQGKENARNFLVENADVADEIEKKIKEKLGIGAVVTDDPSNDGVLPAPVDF
Arbovirus anti: arbovirus infection inhibition. arbovirus infection cell-based antiviral screen. inhibition, % at 10 µM. 200,000 tested, 0.37% active;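 active = inhibition from about 30%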;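 note: bluetongue infection of BSR cells; cell survival read as ATP light after 72 h; 0% = infected wells without compound and 100% = uninfected wells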
Mtb bLac sens: beta-lactam sensitization of Mtb H37Rv; M. tuberculosis H37Rv growth with meropenem, percent inhibition; hits of this screen are not shown here; inhibition, % at 25 µM; 330,000 tested, 0.27% active;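 active = about 74% or more and at least 40 points above the plate without the antibiotic, then above 30% in a dose series; inconclusive = first-round hits that could not be retested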;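 note: growth measured after seven days incubation then overnight dye step; 0% = bacteria only wells and 100% = bacteria with antibiotic; twin plates without the antibiotic show which effects depend on it; some results filed as inactive read as strong as hits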
Mtb H37Rv: M. tuberculosis H37Rv growth inhibitors, H37Rv strain (AID 1626) | M. tuberculosis H37Rv growth inhibition; higher % means a stronger effect | inhibition, % at 10 µM; hits with a dose series show IC50 in µM | 220,000 tested, 0.95% active;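 active = confirmed in a dose series; inconclusive = inhibition above 80% but not taken into the dose series; inactive = below 80% or under 30% at every dose of the series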;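 note: bacteria incubated seven days before Alamar blue readout; 0% = bacteria only wells and 100% = bacteria with antibiotic wells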
Arbovirus anti repeat: further read-out of Arbovirus anti, marked with its call; inhibition, %; measured here: 10K subset replicate screen; many hits read low in the repeat;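 first of two repeat runs on a subset; 0% = infected and 100% = uninfected wells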
Active calls of the source: *; ? = inconclusive; · = not tested or not shown; & = joins results of further samples. These rows are one share of the data (hit frequency here may not be typical).

SMILES	YopH PTP inh	RecA intein inh	Arbovirus anti	Mtb bLac sens	Mtb H37Rv	others
Cc1nn(C)cc1C(C)NC(=O)c1cc(COc2c(F)cccc2F)on1 (stereo unspecified)	·	3.1	3.1	-10.5	2.6%
O=C(CN1CCN(Cc2ccccc2)CC1)Nc1ccc2c(c1)CCC2	·	0.2	-13.9	0.0	-3.5%
O=C1NCCCC1C(=O)N/N=C/c1ccccc1O (stereo unspecified)	-32.3	-2.8	-15.6	-1.6	-0.3%
Cn1c(=O)c2c(ncn2CCNC2=NCCCCC2)n(C)c1=O	·	-1.4	7.4	-5.6	0.2%
COc1ccc(CNc2oc(COc3ccccc3)nc2C#N)cc1	-29.8	9.3	1.6	-2.5	·	Arbovirus anti repeat=5.1
CC1CN/C(=C\C(=O)c2ccccc2)C(=O)N1 (stereo unspecified)	-0.1	·	6.6	-0.6	-5.5%
Cc1c(O)c(=O)ccn1C	-51.6	-5.5	1.6&-0.3	-0.3	-1.0%&8.4%
CCN(CC)S(=O)(=O)c1ccc(C)c(NC(=O)CNCCN(C(C)C)C(C)C)c1	·	-3.2	-1.4	5.6	-11.1%
Cc1cc(CNC(=O)c2cccc([N+](=O)[O-])c2)c2ccccc2n1	·	-4.0	1.9	-6.3	-4.4%
O=C(Nc1sc2c(c1C(=O)O)CCC2)c1ccccc1	-13.0	0.6	27.9	0.5	-7.5%
Cc1c(O)ccc(C(=O)COc2ccc(F)cc2)c1O	-24.6	0.2	-0.1	-4.2	1.1%
COc1ccccc1NC(=O)CCN1C(=O)/C(=C/c2cc(OC)c(OC)c(OC)c2)SC1=S	·	5.5	·	2.6	·
CCSc1ccc(C(=O)Nc2cccc(C)n2)cc1[N+](=O)[O-]	-23.2	-3.9	-24.1	-4.3	-3.1%
O=C(Nc1cccnc1)c1cc(-c2ccc(Br)cc2)on1	-14.8	2.5	0.3	-2.2	11.0%	Arbovirus anti repeat=2.4
CCOc1ccc(Br)cc1C(=O)N/N=C/c1cccnc1	·	2.1	·	3.5	·
CN1CCC(N(C)S(=O)(=O)c2ccc(Cl)cc2)CC1	·	7.4	·	-10.3	·
O=C(CSc1n[nH]c(=O)[nH]c1=O)c1ccc([N+](=O)[O-])cc1	·	-2.9	·	-2.5	-3.6%
O=C(Nc1ccc(CN2CCOCC2)cc1)c1cc(Br)ccc1Cl	·	-3.3	·	3.0	·
CC(=O)N1CCOc2ccc(S(=O)(=O)N3CCN(c4cc(C)ccc4C)CC3)cc21	·	7.3	·	1.2	·
CCCOc1ccc(/C(O)=C2\C(=O)C(=O)N(c3ccccn3)C2c2ccccc2F)cc1C (stereo unspecified)	·	0.5	·	-0.1	·
CCOc1ccc(NC(=O)CC(=O)Nc2ccc(OCC)cc2)cc1	·	0.9	·	-8.8	·
Cc1nc(/C=C/c2ccccc2)[nH]c(=O)c1-c1ccccc1	-14.0	-1.0	-18.6	5.2	0.7%
COc1cccc(C(=O)N/N=C(\C)CC(=O)Nc2ccc(N(C)C)cc2)c1	·	-7.0	·	3.2	·
Cc1ccc(CNc2nc3ccccc3n3nnnc23)cc1	-31.7	0.5	-2.0	0.7	0.9%
COc1ccc(CNS(=O)(=O)c2c(C)[nH]c(C)c2C(=O)N2CCCC2)cc1	·	2.8	·	?	·
CCOc1ccc(/C=C/C(=O)OC(C)C(=O)NC2CCCCC2C)cc1OC (stereo unspecified)	·	-0.3	·	0.5	·
Cc1ccc(N(C(=O)CC2NC(=O)NC2=O)C2(C(=O)NC3CCCC3)CCCCC2)cc1 (stereo unspecified)	-46.6	-1.8	8.6	-0.6	·	Arbovirus anti repeat=0.6
Cc1ccc(-c2nc(N/N=C/c3cccnc3)c3ccccc3n2)cc1	-31.7	-2.5	-30.6	2.1	-0.3%
O=C(CCNS(=O)(=O)c1cccs1)N1CCN(c2ccc(F)cc2)CC1	·	-0.5	·	-4.7	·
COc1ccc(-n2nc3ccc(NS(C)(=O)=O)cc3n2)cc1Cl	-17.1	·	-3.0	6.9	4.1%
Cc1cccc(NC(=S)N(CCCN2CCOCC2)Cc2cn(C)c3ccccc23)c1	48.3	-2.4	5.7	10.2	6.6%
COc1ccc(-n2c(=O)c3c4c(sc3n(CC(=O)NCc3ccco3)c2=O)CCC4)c(OC)c1	-19.7	-1.3	6.4	3.7	-0.1%
CCOc1ccc2nc(SC3CC(=O)N(c4ccc(C)cc4)C3=O)sc2c1 (stereo unspecified)	-18.0	-13.9	-2.2	89.4	3.1%
Cc1ccc(S(=O)(=O)Oc2cccc(N3C(=O)C4CC=CCC4C3=O)c2)cc1 (stereo unspecified)	-14.5	-1.2	17.3	-5.0	-4.5%
O=C1CSC(=S)N1/N=C/C=C/c1ccccc1	-11.9	-2.4	2.4	-1.7	7.5%
CC(C)N1CCN(S(=O)(=O)c2ccc3ccccc3c2)CC1	·	2.1	·	-9.5	·
Cc1ccc(NS(=O)(=O)c2ccc(NC(=O)c3cccs3)cc2)cc1	-42.9	-0.6	-1.3	-1.6	0.9%
CCOC(=O)c1c(C)c(C(=O)Nc2cc(OC)ccc2OC)c(C)n1CC	-26.1	5.6	-17.4	·	7.8%
O=C1CC(c2ccco2)Sc2ccccc2N1 (stereo unspecified)	·	0.5	·	4.5	·
CCCCc1nc2cc(C(=O)N3CCNC(=O)C3CC(=O)OC)ccc2o1 (stereo unspecified)	·	-0.7	·	-9.9	·
Cc1cc(C)c2nc(NNC(=O)c3ccc(S(=O)(=O)N4CCCCC4)cc3)sc2c1	-10.4	-2.0	-33.7	-4.9	3.9%
Cc1[nH]n(-c2ccccc2)c(=O)c1N=Nc1ccc(C(=O)O)cc1	·	8.8	·	6.1	·
CSc1ncccc1C(=O)Nc1nc2ccc(F)cc2s1	·	-1.7	13.4	35.5	2.1%
CC1(C)OC2OC(C(=O)N/N=C/c3cc(Br)ccc3O)C3OC(C)(C)OC3C2O1 (stereo unspecified)	-12.0	-0.8	-13.1	7.5	-5.5%
CCOC(=O)c1c(C)n(C)c2cc(CN(C)C)c(O)c(S(=O)(=O)c3ccccc3)c12	·	-3.0	2.4	-1.8	6.5%
COc1ccc(/C=N/NC(=O)CCSc2nc3ccccc3s2)cc1	-24.3	2.4	-8.0	-3.2	-4.0%
COC(CNC(=O)c1cccc(-n2c(=S)[nH]c3cc(Cl)ccc3c2=O)c1)OC	·	12.2	-0.9	-4.8	-7.0%
COc1ccc(N=Cc2cc3c(cc2O)OC(N)=C(C#N)C3c2ccccc2)cc1 (stereo unspecified)	-32.2	-10.9	-4.0	85.6	88.3%
CCOC(=O)CSc1n[nH]c(NC(C)=O)n1	·	2.4	3.6	-0.2	4.4%
CC(/C=N\NC(=O)CN1CCN(Cc2ccccc2)CC1)=C\c1ccco1	-6.6	1.7	-2.9	-4.0	2.7%
CC1CCCCN1S(=O)(=O)c1csc(C(N)=O)c1 (stereo unspecified)	·	1.4	·	-10.9	·
COc1ccc(OCCn2cc(/C(N)=N/O)c3ccccc32)cc1	-1.2	0.6	-14.2	2.9	5.6%
O=C(CCC(=O)Nc1nnc(C2CCCCC2)s1)NCc1ccccc1	·	·	·	-3.6	-0.2%
CN(C)C(=O)Oc1ccc(Cl)c2ccccc12	-28.6	0.1	-8.9	5.7	4.5%
Cc1cc(C)c(C#N)c(SCc2ccccc2[N+](=O)[O-])n1	-17.5	-1.9	-7.0	-5.3	2.5%
Cc1ccc(NC(=O)Cc2nnc(SCC(=O)Nc3ccc(N4CCOCC4)cc3)n2C)cc1	·	0.0	·	3.5	·
O=C(Nc1cccc(-c2cn3cccnc3n2)c1)c1ccco1	-57.5	0.2	-0.4	-1.7	-10.1%
COCc1cc(=O)[nH]c(/N=C(\N)Nc2ccc(C)cc2C)n1	·	0.7	1.3	-1.8	3.5%
O=C(NCCN1CCOCC1)c1sc2cc(Cl)ccc2c1Cl	·	2.1	·	-2.8	·
CCN(CC(=O)Nc1cccc(OC)c1)CC(=O)Nc1ccc(C)cc1Cl	·	2.1	19.1	5.9	2.8%

Next records.
SMILES	YopH PTP inh	RecA intein inh	Arbovirus anti	Mtb bLac sens	Mtb H37Rv	others
COCc1ccc(C(=O)NC(C)c2cnn(-c3ccccc3C)c2C)o1 (stereo unspecified)	·	2.9	-1.4	0.6	-1.2%
Cc1nn(CC(=O)NCCN2CCCCCC2)c(=O)c2nn(-c3ccccc3)c(C)c12	·	0.3	·	-4.2	·
CC(=O)Nc1ccc(-c2cc(C(=O)O)c3ccccc3n2)cc1	·	·	·	-3.6	-1.4%
Cc1cc2cc3c(N)[nH]nc3nc2cc1C	-3.4	-0.7	1.2	79.7	5.7%
COc1cc(C(=O)OCc2cc(=O)oc3c(C)c(C)ccc23)ccc1OC(F)F	·	1.3	·	-4.9	·
O=C(Nc1cccnc1)c1ccc(CN2CCc3ccccc3C2)cc1	-24.2	2.3	-1.6	-3.9	-8.4%	Arbovirus anti repeat=-1.7
CCCc1nnc(NC(=O)CCC(=O)N2CCC(Cc3ccccc3)CC2)s1	·	0.1	·	1.1	·
CCNC(=S)NNC(=O)Cn1nc(C)cc1C	-28.2	0.8	-3.8	-5.7	3.5%
CC(C)Oc1cccc(C(=O)NC(=S)NCc2cccnc2)c1	-24.0	-3.8	8.7	8.5	8.4%
O=C(Nc1cccnc1Cl)c1cccnc1Cl	4.6	-1.9	5.0	0.1	-0.3%
Cc1nn(-c2ccccc2)c(C)c1/C=N/NC(=O)CSc1nnc(SCc2cccc3ccccc23)s1	-6.4	-1.0	-17.5	0.5	7.9%
COc1ccc(OCCNC(=O)C(Cc2c[nH]c3ccccc23)NC(C)=O)cc1 (stereo unspecified)	·	0.7	2.2	-5.7	-4.5%
CCOC(=O)CC(NC(=O)Cc1ccccc1)c1ccccc1Cl (stereo unspecified)	-22.1	0.9	-0.4	5.9	-2.5%
COc1ccc(S(=O)(=O)N2CCN(C(=S)NCC3CCCO3)CC2)cc1OC (stereo unspecified)	·	-3.5	·	-0.2	·
c1ccc2sc(-c3ccncc3)nc2c1	·	1.1	·	-2.5	-6.5%
CCCCCCCNC(=O)c1ccc(N2CCC3(CC2)OCCO3)c([N+](=O)[O-])c1	-8.0	3.5	-26.7	97.1	47.9%
CCC(=O)c1c[nH]c(C(=O)N2CCN(c3ccccc3)CC2)c1	·	-0.6	2.9	-2.9	0.7%
CSc1c(CC(=O)Nc2ccccc2C(F)(F)F)n(Cc2ccccc2)c2ccccc12	-13.8	0.2	-8.3	13.9	-0.8%
O=c1cc(N2CCOCC2)[nH]c(=O)n1Cc1ccc(F)cc1	·	2.4	-2.7	2.0	3.8%	Arbovirus anti repeat=-0.5
Cc1cccc(CN2CCN(Cc3ccc(-n4cccn4)cc3)CC2CCO)n1 (stereo unspecified)	·	-3.2	5.1	-10.2	0.2%
CCCOc1cccc(-c2nnc(N)s2)c1	-28.6	0.5	0.2	0.1	65.3%
CC(C)(C)NC(=O)CN1CCC(NC(=O)C23CC4CC(CC(C4)C2)C3)CC1	·	-0.8	5.5	1.7	2.1%
CCOC(=O)Nc1ccc(OC)c([N+](=O)[O-])c1	·	1.6	2.5	-8.7	-1.0%
CCOC(=O)c1c(NC(=O)CSc2nnc(N)s2)sc(C)c1-c1ccc(C)cc1	-20.6	1.9	-34.8	88.2	11.2%
COc1ccc(/C=C2\NC(=S)N(CC3CCCO3)C2=O)c(OC)c1 (stereo unspecified)	-12.5	-1.3	1.9	6.9	-6.0%
Cc1ccc(NC(=O)CCn2cnc3ccccc3c2=O)c(C)c1	·	0.2	-5.5	5.8	-0.1%
CC(OC(=O)c1cccc(-n2cnnn2)c1)C(=O)Nc1cccc(Cl)c1 (stereo unspecified)	·	0.9	·	-10.6	·
CC1CCC(NC(=O)Cn2ncc3ccccc32)CC1 (stereo unspecified)	-31.7	·	-2.4	-1.4	3.7%	Arbovirus anti repeat=6.8

Retrieved by compound from the list above, 5 records:
SMILES	YopH PTP inh	RecA intein inh	Arbovirus anti	Mtb bLac sens	Mtb H37Rv	others
CCOC(=O)Nc1ccc(OC)c([N+](=O)[O-])c1	·	1.6	2.5	-8.7	-1.0%
CC(OC(=O)c1cccc(-n2cnnn2)c1)C(=O)Nc1cccc(Cl)c1 (stereo unspecified)	·	0.9	·	-10.6	·
CCOC(=O)c1c(NC(=O)CSc2nnc(N)s2)sc(C)c1-c1ccc(C)cc1	-20.6	1.9	-34.8	88.2	11.2%
CCC(=O)c1c[nH]c(C(=O)N2CCN(c3ccccc3)CC2)c1	·	-0.6	2.9	-2.9	0.7%
CC1CCC(NC(=O)Cn2ncc3ccccc32)CC1 (stereo unspecified)	-31.7	·	-2.4	-1.4	3.7%	Arbovirus anti repeat=6.8

Assay outcomes: PubChem, several laboratories
